High-throughput results: PubChem BioAssay, National Center for Advancing Translational Sciences (NCATS)
VDR inhibitor – Inhibitors of the vitamin D receptor (VDR): qHTS | Potency, µM, for the others: max response, negative = inhibition, most hits filed as inhibitors | VDR-SRC2-3 peptide fluorescence polarization, 2 h | Vitamin D3 receptor (Homo sapiens), P11473 | hit rate 0.93% among 400,000 | AID 504847, 2011; active = well fitted inhibition curve with a large enough effect; inconclusive = small, poorly fitted or top-dose-only effect, or another doubt; inactive = no such curve, though single readings can be large or run the other way; also: series mostly up to about 120 µM
Target sequence (P11473 whole entry, looked up): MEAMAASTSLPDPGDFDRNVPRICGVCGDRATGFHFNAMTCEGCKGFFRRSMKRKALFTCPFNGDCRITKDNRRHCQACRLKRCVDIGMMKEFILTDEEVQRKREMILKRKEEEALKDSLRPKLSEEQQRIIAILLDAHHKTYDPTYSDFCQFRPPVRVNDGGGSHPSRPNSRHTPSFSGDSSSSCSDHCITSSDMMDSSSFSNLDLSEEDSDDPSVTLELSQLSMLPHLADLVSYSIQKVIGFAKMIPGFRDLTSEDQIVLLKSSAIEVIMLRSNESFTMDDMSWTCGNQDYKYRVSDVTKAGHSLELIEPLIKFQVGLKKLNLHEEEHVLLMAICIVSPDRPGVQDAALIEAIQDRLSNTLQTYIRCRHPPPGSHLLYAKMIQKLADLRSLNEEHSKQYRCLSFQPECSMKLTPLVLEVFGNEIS
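Inhibition of the VDR/SRC2-3 peptide interaction is quantified by fluorescence polarization. Compounds (23 nl, pintool) incubate with the reagents for 2 hours at ambient room temperature.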
The depositor's hits bear a star; & = joins results of further samples. % is scaled to controls: 0 for no effect and ±100 for the full control effect; potency is read from the fitted curve at half-maximal effect. A portion of the library. The share of hits here may be higher or lower than overall.

The opening seven compounds as a preview:
How did CCOC(=O)CN1C(=O)C(O)(CC(=O)c2cc(OC)ccc2OC)c2ccccc21 (stereo not given) do in these assays?
VDR inhibitor: 11%

How did CC(C)C1(CCNC(=O)c2cccs2)CCOC(C)(C)C1 (stereo not given) do in these assays?
VDR inhibitor: -10%

What do the screens show for `CC1(C)CC2CC(C)(CN2C(=O)c2cccs2)C1` (stereo not given)?
VDR inhibitor: 14%

Results for COc1ccc(Cn2c(O)c(C=Nc3ccccc3C(=O)O)c3ccccc3c2=O)cc1 ?
VDR inhibitor: -10%

Results for CCOC(=O)Cc1csc(NC(=O)Nc2ccc(F)cc2)n1 ?
VDR inhibitor: -12%

How did CCN(CC)c1ccc(-c2nn3c(-c4ccccc4OC)nnc3s2)cc1 do in these assays?
VDR inhibitor: -17%

What do the screens show for `CN1CCN(c2nc3ccccc3nc2C(C#N)S(=O)(=O)c2ccccc2)CC1` (stereo not given)?
VDR inhibitor: -3%

Main list, from the start:
How did CCOC(=O)CN1C(=O)C(O)(CC(=O)c2cc(OC)ccc2OC)c2ccccc21 (stereo not given) do in these assays?
VDR inhibitor: 11%

How did CC(C)C1(CCNC(=O)c2cccs2)CCOC(C)(C)C1 (stereo not given) do in these assays?
VDR inhibitor: -10%

What do the screens show for `CC1(C)CC2CC(C)(CN2C(=O)c2cccs2)C1` (stereo not given)?
VDR inhibitor: 14%

Results for COc1ccc(Cn2c(O)c(C=Nc3ccccc3C(=O)O)c3ccccc3c2=O)cc1 ?
VDR inhibitor: -10%

Results for CCOC(=O)Cc1csc(NC(=O)Nc2ccc(F)cc2)n1 ?
VDR inhibitor: -12%

How did CCN(CC)c1ccc(-c2nn3c(-c4ccccc4OC)nnc3s2)cc1 do in these assays?
VDR inhibitor: -17%

What do the screens show for `CN1CCN(c2nc3ccccc3nc2C(C#N)S(=O)(=O)c2ccccc2)CC1` (stereo not given)?
VDR inhibitor: -3%

What do the screens show for `COc1ccccc1C(=O)NCC(=O)OCC(=O)NNC(=O)c1ccc(Br)cc1`?
VDR inhibitor: 2%

Results for Nc1c(C(=O)CSc2nncn2-c2ccccc2)c(=O)[nH]c(=O)n1C1CC1 ?
VDR inhibitor: 0%

Results for COc1cc(/C=C(\C#N)C(N)=O)cc(CSc2nc3ccccc3s2)c1O ?
VDR inhibitor: -16%&-15%&-29%

How did O=C(Cn1ccc([N+](=O)[O-])n1)NCc1cccs1 do in these assays?
VDR inhibitor: -2%

How did CCNC(=S)NNC(=O)C(c1ccccc1)c1ccccc1 do in these assays?
VDR inhibitor: 2%

Results for CCOc1ccc(S(=O)(=O)/N=C(/Nc2ccc(C)c(S(=O)(=O)N3CCOCC3)c2)c2ccccc2)cc1 ?
VDR inhibitor: -12%

How did O=C(CN1C(=O)c2ccccc2S1(=O)=O)NCCSCc1ccco1 do in these assays?
VDR inhibitor: inconclusive

How did Cc1ccc(NC(=O)Cc2cn3ccsc3n2)nc1 do in these assays?
VDR inhibitor: 17%

Results for COc1ccc(NS(=O)(=O)c2cc(NC(=O)[C@@H](NC(=O)c3ccccc3)C(C)C)ccc2C)cc1 ?
VDR inhibitor: -13%

Results for CNC(=S)N/N=C/c1cc(Br)c(OCc2ccncc2)c(OC)c1 ?
VDR inhibitor: -16%

Results for Cc1cc(C)nc(/N=C(\N)Nc2ccc(S(=O)(=O)Nc3nccc(C)n3)cc2)n1 ?
VDR inhibitor: 12%

How did NNc1ncnc2sc3c(c12)CCC3 do in these assays?
VDR inhibitor: -2%

What do the screens show for `CCOC(=O)C(CO)NC(=O)C1(NC(C)=O)CCCC1` (stereo not given)?
VDR inhibitor: 10%

How did CCOC(=O)N1CCN(C(=O)c2ccc3nc4cc(Cl)ccc4c(=O)n3c2)CC1 do in these assays?
VDR inhibitor: 11%

What do the screens show for `CC(C)(C)OC(=O)N1CCC(C(=O)N[C@@H](Cc2c[nH]c3ccccc23)C(=O)O)CC1`?
VDR inhibitor: 6%

Results for Cc1ccc(S(=O)(=O)N2CCCCC2)cc1NC(=O)c1cccs1 ?
VDR inhibitor: 8%

How did COc1ccc(-n2c(=O)c(-c3cn(C)c4ccccc34)nc3cnc(OC)nc32)cc1 do in these assays?
VDR inhibitor: -11%

Results for CC(OC(=O)c1cccc(S(=O)(=O)N2CCCC2)c1)C(=O)c1ccccc1 (stereo not given) ?
VDR inhibitor: -5%

What do the screens show for `COc1cccc(CNC(=O)Cc2ccc(NC(=O)C3=C(C)OCCS3)cc2)c1`?
VDR inhibitor: -4%

What do the screens show for `Cc1ccc(C(=O)C(C(=O)/C=C/c2ccccc2)=C2SCCCS2)cc1`?
VDR inhibitor: -15%

Results for CC1CC(C)CN(C(=O)COc2ccc([N+](=O)[O-])cc2Cl)C1 (stereo not given) ?
VDR inhibitor: -21%

How did Cc1ccc2c(c1)N(CC(=O)NCCc1c[nH]c3ccccc13)C(=O)CO2 do in these assays?
VDR inhibitor: 4%

How did CCOc1ccc(NC(=O)c2ccccc2CO)cc1 do in these assays?
VDR inhibitor: -2%

How did CCOC(=O)c1[nH]c(C)c(C(=O)OCC(=O)N(C)C2CCS(=O)(=O)C2)c1C (stereo not given) do in these assays?
VDR inhibitor: -8%

How did CC(OC(=O)CCN1C(=O)C2CC=CCC2C1=O)C(=O)c1ccc(F)cc1 (stereo not given) do in these assays?
VDR inhibitor: 4%

Results for CCCCC12CN3CC(C)(CN(C1)C3c1ccc(OCc3ccccc3)cc1)C2=O (stereo not given) ?
VDR inhibitor: -5%

Results for Cc1cc(/C=C(/C#N)C(=O)Nc2ccccc2)c(C)n1-c1cccnc1 ?
VDR inhibitor: -10%

How did O=C(CCS(=O)(=O)c1ccc(F)cc1)Nc1nc(-c2ccncc2)cs1 do in these assays?
VDR inhibitor: inconclusive

Results for O=C1C(=O)N2C(=C1C(=O)N1CCCCCC1)c1ccccc1CC21CCCC1 ?
VDR inhibitor: -10%

How did CC1CCc2c(sc(/N=C/c3ccco3)c2C(N)=O)C1 (stereo not given) do in these assays?
VDR inhibitor: 4%

How did N#Cc1ncccc1CCc1cccc(Cl)c1 do in these assays?
VDR inhibitor: -2%

Results for Cc1[nH][nH]c(=O)c1C(c1ccc(-c2cccc(Cl)c2)o1)c1c(C)[nH][nH]c1=O ?
VDR inhibitor: inconclusive

What do the screens show for `COc1cc2c(cc1OC)C1(CCCC1)CNC2c1ccc([N+](=O)[O-])cc1` (stereo not given)?
VDR inhibitor: 0%

What do the screens show for `CCOc1ccccc1NC(=O)c1nn(-c2ccc(OC)cc2)c(=O)c2c1c1ccccc1n2C`?
VDR inhibitor: -1%

What do the screens show for `Brc1ccc(OCCn2ccnc2)cc1`?
VDR inhibitor: -6%

How did Cc1nc2c(c(=O)[nH]1)CSCC2 do in these assays?
VDR inhibitor: -7%

What do the screens show for `COc1ccc2c(c1OC)C(=O)N(c1ncn[nH]1)C2`?
VDR inhibitor: -12%

Results for CCOc1ccc(NC(=O)c2cc(S(=O)(=O)NC3CCCC3)ccc2F)cc1 ?
VDR inhibitor: 11%

What do the screens show for `O=C(Nc1ccc(Cl)c(Cl)c1)Nn1cnnc1`?
VDR inhibitor: 4%

How did NC(=O)C1CCN(C(=O)COc2ccc(S(=O)(=O)NCc3ccccc3)cc2Cl)CC1 do in these assays?
VDR inhibitor: -21%

Results for Cc1c(OC(=O)CNC(=O)OC(C)(C)C)ccc2c3c(c(=O)oc12)CCC3 ?
VDR inhibitor: -6%

Results for Cc1ccccc1-n1c(=O)cc(NCC2CCCO2)[nH]c1=O (stereo not given) ?
VDR inhibitor: 3%

What do the screens show for `O=C1Nc2cc3c(cc2Sc2ccccc21)OCCO3`?
VDR inhibitor: 10%

How did O=c1[nH]nc(Cc2ccc(Cl)cc2)c2ccccc12 do in these assays?
VDR inhibitor: 10%

What do the screens show for `S=C(NCCCc1cnc[nH]1)NCCCN(Cc1ccc(Cl)c(Cl)c1)c1ccc(Br)cn1`?
VDR inhibitor: 8%

How did COc1ccc(S(=O)(=O)N(C)C)cc1NC(=O)c1ccc(OCC(=O)N2CCOCC2)c(OC)c1 do in these assays?
VDR inhibitor: -5%

What do the screens show for `CC1=NC(=O)C(N=Nc2cccc(C(=O)O)c2)N1c1ccccc1` (stereo not given)?
VDR inhibitor: -3%

Results for CCNc1nc(NCC)n2c(SCC(=O)Nc3ccc(OC)c(OC)c3)nnc2n1 ?
VDR inhibitor: 0%

Results for Cc1ncsc1CCOC(=O)c1ccc(Cl)cc1 ?
VDR inhibitor: 12%

What do the screens show for `NC(=O)CSc1nc2ccc([N+](=O)[O-])cc2[nH]1`?
VDR inhibitor: -3%

How did CCC1=NN2C(=N)/C(=C/c3ccc(OS(=O)(=O)c4ccccc4)cc3)C(=O)N=C2S1 do in these assays?
VDR inhibitor: inconclusive

What do the screens show for `COc1ccc(C(NC(=O)C2C3C=CC(C3)C2C(=O)O)c2ccccc2)cc1` (stereo not given)?
VDR inhibitor: 17%

Results for CCOC(=O)C(CCc1ccccc1)NC(C)C(=O)N1Cc2cc(OC)c(OC)cc2CC1C(=O)O (stereo not given) ?
VDR inhibitor: 9%

How did O=C(NCC1CCCO1)c1ccccc1-c1nc(-c2ccc(F)cc2)no1 (stereo not given) do in these assays?
VDR inhibitor: 1%

What do the screens show for `COc1ccc(C(=O)/C=C/c2ccc(OC3CSC3)cc2)cc1OC`?
VDR inhibitor: inconclusive

What do the screens show for `O=C(CC1c2ccccc2Oc2ccccc21)N1CCN(c2ccccn2)CC1`?
VDR inhibitor: 11%

What do the screens show for `CCCCC(=O)OCc1nc(N)nc(Nc2ccccc2C)n1`?
VDR inhibitor: -6%

Results for CCN(CC)CCCNC(=O)c1cc2nc3c(c(C(F)(F)F)n2n1)CCc1ccccc1-3 ?
VDR inhibitor: 3%

How did O=C(NC1CCCCC1)C(c1ccc(F)cc1)N(C(=O)c1csnn1)C1CCCC1 (stereo not given) do in these assays?
VDR inhibitor: -20%

What do the screens show for `CC(=O)Nc1ccc(NC(=O)CCSCCc2ccccn2)cc1`?
VDR inhibitor: -21%&7%

Results for CC(C)(C)SCCNC(=O)CN(c1ccccc1)S(=O)(=O)c1ccc(F)cc1 ?
VDR inhibitor: 10%

What do the screens show for `CC1CCc2c(sc(NC(=O)c3ccc(-c4ccccc4[N+](=O)[O-])o3)c2C#N)C1` (stereo not given)?
VDR inhibitor: 0%

How did CN(C)CCNc1c2c(nc3nnnn13)CCCC2 do in these assays?
VDR inhibitor: -18%

What do the screens show for `O=C1C=C(Nc2ccccc2O)c2ccccc2C1=O`?
VDR inhibitor: 8%

Results for N#CCSc1nc(-c2ccccc2)nc2ccccc12 ?
VDR inhibitor: 4%

Results for NC(=O)C1CCN(C(=O)CNC(=O)c2ccc(Br)o2)CC1 ?
VDR inhibitor: -7%

What do the screens show for `CCC[C@H]1C(=O)N2C(N(C)C)=Nc3ccc(C)cc3N2C1=O`?
VDR inhibitor: 0%

Results for CN(CC(=O)Nc1ccccc1)CC(=O)Nc1ccc(F)cc1 ?
VDR inhibitor: -21%

What do the screens show for `CCn1c(=O)c2ccccc2n(Cc2cccc([N+](=O)[O-])c2)c1=O`?
VDR inhibitor: -12%

What do the screens show for `Cc1ccc(N(Cc2cc3ccccc3[nH]c2=O)C(=O)c2cccc(Cl)c2)cc1`?
VDR inhibitor: 5%

How did Cc1ccc(N2C(=O)C3ON(c4ccccc4)C(CC(C)C)C3C2=O)cc1 (stereo not given) do in these assays?
VDR inhibitor: -5%

Results for CCOC(=O)c1c(COC(=O)c2ccco2)nc2ccccc2[n+]1[O-] ?
VDR inhibitor: -5%

How did CCOC(=O)[C@H]1[C@H]2COc3ccc(Br)cc3[C@@H]2N2C(=O)[C@H](C)NC(=O)[C@@]12C do in these assays?
VDR inhibitor: 6%

Results for CC1(C)C(=O)Nc2ccccc2N1C(=O)COC(=O)CNS(=O)(=O)c1ccc(Br)cc1Cl ?
VDR inhibitor: -2%

Results for Cc1ccc(C(=O)Nc2ccc(Nc3ccccc3)cc2)c(Cl)c1 ?
VDR inhibitor: 1%

What do the screens show for `CCc1noc(C)c1C(=O)Nc1cc(C(F)(F)F)ccc1-n1cncn1`?
VDR inhibitor: 12%

What do the screens show for `COc1cccc(NC(=O)CN2CCN(S(=O)(=O)c3ccc(C(C)C)cc3)CC2)c1`?
VDR inhibitor: -1%

How did O=C(NCC1CCCO1)C1CC1(c1ccccc1)c1ccccc1 (stereo not given) do in these assays?
VDR inhibitor: -6%

Results for COc1cccc(CC(Cc2nc3ccccc3[nH]2)c2nc3ccccc3[nH]2)c1 (stereo not given) ?
VDR inhibitor: 16%

How did COc1ccccc1-c1c(C)oc2c(CN3CCN(C)CC3)c(O)ccc2c1=O do in these assays?
VDR inhibitor: 6%

What do the screens show for `N#Cc1ccc(OC(=O)c2cnccn2)cc1`?
VDR inhibitor: -8%

Results for O=C(NC1CCCC1)C(c1cccs1)N(Cc1ccco1)C(=O)Cn1nnc(-c2cccs2)n1 (stereo not given) ?
VDR inhibitor: 2%

How did COc1cc(CCCN2C(N)=NC[C@@H]2c2ccccc2)cc(OC)c1OC do in these assays?
VDR inhibitor: 7%

How did CCOc1ccc2c(c1)c(N=O)c(O)n2C do in these assays?
VDR inhibitor: 7%

What do the screens show for `COc1cc(C2CC(=O)N(c3ccccc3)C3=C2C(=O)OC3)cc(OC)c1OC` (stereo not given)?
VDR inhibitor: -3%

Results for Cc1cc([N+](=O)[O-])nn1CC(=O)NC(C)c1ccccc1 (stereo not given) ?
VDR inhibitor: 5%

Results for COc1ccccc1/C=C/C=N/n1c(-c2n[nH]c3c2CCC3)n[nH]c1=S ?
VDR inhibitor: -7%

What do the screens show for `COc1ccc(Cl)cc1NC(=O)Nn1cnnc1`?
VDR inhibitor: -13%

Results for CCOC(=O)c1ccc(N2C(=O)CC(Nc3ccc(O)cc3)C2=O)cc1 (stereo not given) ?
VDR inhibitor: 19%

What do the screens show for `O=C(Nc1ccc(-n2ccc(C(F)(F)F)n2)cc1)c1cccs1`?
VDR inhibitor: 6%

Results for C/C(=N\NC(=O)CCCOc1ccc(Cl)cc1C)c1ccc(C)o1 ?
VDR inhibitor: -20%
